Screening data deposited in PubChem BioAssay by National Center for Advancing Translational Sciences (NCATS).
HTT promoter inh: HTT promoter inhibition; HEK293 HTT promoter firefly luciferase reporter (activity 0% = vehicle and -100% = no light), 24 h; AID 1508623; 48,000 compounds, 0.93% hits; Potency, µM (doses to about 57.5 µM), for inactives: at the highest dose activity change, negative = inhibition, actives largely listed as inhibitors; active means well fitted inhibition curve with a large enough effect; inconclusive means small, poorly fitted or top-dose-only effect; inactive means no such curve, though single readings can be large or run the other way; further: nearly all actives have a fitted effect of over 50% in size
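Luminescence was read after Dual-Glo reagent and a 10 min room-temperature incubation. Values were normalized to vehicle (0% activity) and zero RLU (-100% activity). Reporter HEK293 cells had been exposed to compounds (up to 57.5 uM final) for 24 h.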
PMP22 txn prim: modulates PMP22 transcription in S16 Schwann cells | AID 1508649 | S16 Pmp22-F2sN Schwann cells (luciferase reporters placed in the Pmp22 gene), FLuc/NLuc coincidence luminescence, 24 h | Potency, µM (doses to about 57.5 µM), for the others: at the top dose activity change, negative = inhibition, usual class: inhibitors | 43,000 compounds, 2% hits; active = clear falling dose curves in both reporters; inconclusive = both reporters move, but less clearly or upward; inactive = either reporter flat; the % is the NLuc reporter signal; further: on the % scale 0 is the no-effect control and ±100 the full control effect; some results filed as inactive show a strong effect at the top dose
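S16(c9) Schwann cells with FLuc/NLuc coincidence reporter in the Pmp22 3' UTR; compounds pin-transferred, 24 h at 37C. Dual-luciferase read: FLuc first, then NLuc after Stop&Glo, each 10 min at room temperature.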
An asterisk follows results filed as active; ? = inconclusive; nt = no result given; [ ] = dose if it differs, or a comment. Potency means the concentration at half of the fitted maximal effect. Compounds were not picked by outcome (roughly 2.6% active in at least one column).

SMILES	HTT promoter inh	PMP22 txn prim
O=C(NCc1cccc(Cl)c1)C1CCN(c2nn3cc(-c4ccc(F)cc4)nc3s2)CC1	-5%	?
COc1ccc(CCNC(=O)c2cc(=O)[nH]c3ccc(S(=O)(=O)N4CCCCC4)cc23)cc1OC	-4%	-17%
Oc1ccc(-c2nc(-c3ccccc3)c(-c3ccc(Br)cc3)[nH]2)cc1	-21%	?
O=C(NC1CC(=O)N(c2ccc(Cl)cc2)C1)c1cc2ccccc2o1 (centres undefined)	3%	-1%
COC(=O)c1sccc1S(=O)(=O)N(CC(=O)NCc1ccc(F)cc1)c1ccc(Cl)cc1	-4%	?
COc1ccccc1N1CCN(S(=O)(=O)c2cc(-c3cc(C)no3)ccc2C)CC1	-7%	-6%
CCC(C)(C)NC(=O)C1CCC(CNS(=O)(=O)c2ccc3c(c2)CC(C)N3C(C)=O)CC1 (centres undefined)	-15%	?
O=C(CSc1nnc(-c2cccc(F)c2)c(-c2cccc(F)c2)n1)NC1CCCCC1	-27%	?
COC(=O)C(C)NC(=O)N1CCN(c2nnc(C)c3c(C)n(-c4ccc(Cl)cc4)nc23)CC1 (centres undefined)	-8%	?
COc1ccccc1C(=O)Nc1c(C(=O)N2CCN(c3ccccc3F)CC2)oc2ccccc12	-27%	1%
CC(C)Cn1cc(NC(=O)NCc2ccccc2)c2ccccc2c1=O	-10%	?
O=C(CSc1nccn1Cc1ccccc1)Nc1nc2ccccc2s1	26%	-28%
O=C(CN1C(=O)CCSc2ccc(S(=O)(=O)N3CCCC3)cc21)Nc1ccccc1	-8%	?
O=C(NCc1cccc(F)c1)c1ccc2nc(N3CCCCC3)sc2c1	?	-7%
COc1cc(C(=O)N2CCc3c([nH]c4ccccc34)C2c2ccccc2)cc(OC)c1OC (centres undefined)	?	?
CC(=O)c1ccc(NC(=O)c2cc3sccc3n2Cc2ccc(F)cc2)cc1	-12%	?
O=C(Cn1nc(N2CCN(c3ccccc3)CC2)ccc1=O)Nc1ccc(F)cc1F	15%	?
CC(=O)c1cc(-c2ccccc2)n(CCC(=O)Nc2ccc(C(C)C)cc2)c1C	?	?
Cc1ccccc1C(=O)NC1(C(F)(F)F)C(=O)Nc2c1c(=O)[nH]c(=O)n2-c1ccc(F)cc1 (centres undefined)	-1%	3%
COc1ccc(-c2cc(C(C)=O)c(C)n2CCC(=O)NCc2ccc(C)cc2)cc1	?	2%
OCc1cc(C(O)CNCCCCCCOCCCCc2ccccc2)ccc1O (centres undefined)	-8%	nt
Cn1c([N+](=O)[O-])cnc1COC(N)=O	1%	nt
Cc1ccc(Cl)cc1N1CCN(CCCNC(=O)Cn2ncc3c([nH]c4ccccc43)c2=O)CC1	0%	?
COc1ccccc1NC(=O)c1cc(=O)c2ccc(C)c(C)c2o1	22%[11.5 µM]	-13%
CCc1ccccc1NC(=O)Nc1nnc(N(C)Cc2ccccc2)s1	-31%	49%
Cc1nc2c(-c3ccc(F)cc3)c(C)nn2c(C)c1CCC(=O)N1CCN(c2ccc(F)cc2)CC1	-14%	?
CCOc1ccccc1C(=O)NC1(C(F)(F)F)NC(=O)N(CCc2ccc(OC)c(OC)c2)C1=O (centres undefined)	?	3%
Cc1cc(Cl)ccc1Nc1ncnc2onc(C)c12	-26%	1%
COc1ccccc1NC(=O)N1CC=C(c2c[nH]c3ccccc23)CC1	-17%	-53%
CCOC(=O)C1=C(CNCc2ccc(Cl)cc2)NC(=O)NC1c1ccccc1 (centres undefined)	?	-22%
Cc1ccc2c(c1)c(=O)c(C(=O)c1ccncc1)cn2CC(=O)Nc1ccc(C(C)C)cc1	-29%	-12%
CCCN(CCC)CCCNC(=O)Cn1cnc2sc(C)c(S(=O)(=O)N3CCCCC3)c2c1=O	-16%	5%
CCc1ccc(-c2nn(CC(=O)Nc3ccccc3C)c3c2cnc2ccc(C)cc23)cc1	-16%	?
CCOC(=O)c1c(C)c(-c2ccccc2)n(CC(=O)NCCc2ccc(C)cc2)c1C	-4%	-13%
CCOC(=O)c1[nH]c2ccccc2c1NC(=O)c1ccccc1F	-12%	-28%
Cc1cc(=O)n(C(C)C(=O)NCc2ccccc2Cl)c2c1c(C)nn2-c1ccccc1 (centres undefined)	-6%	?
Cc1ccc(S(=O)(=O)CC(=O)Nc2sc3c(c2C#N)CCCCC3)cc1	-13%	-1%
Cc1ccc(-n2c(=O)c3c(c4cc(C)ccc4n3C)n(CC(=O)N3CCCC3)c2=O)cc1	-7%	?
CCn1c(C(=O)NCc2ccc(OC)cc2)cc2sc(Cl)cc21	-26%	4%
C=CCc1ccccc1OCc1nc2ccccc2n1CC	-32%	-1%
O=C(CN1C(=O)C2(SCC(=O)N2c2ccccc2)c2ccccc21)NCc1ccccc1Cl (centres undefined)	-16%	?
COc1ccccc1NC(=O)C1CCC(CNS(=O)(=O)c2ccc3c(c2)CC(C)N3C(C)=O)CC1 (centres undefined)	?	19µM*
CCc1ccc(-n2nc(CO)c(C(=O)NC)n2)cc1	52%[activator]	-1%
COc1ccc2[nH]cc(CCNC(=O)Nc3ccc(F)cc3)c2c1	-15%	?
CC(C)(C)OC(=O)N1CCC(c2c(C(=O)N3CCC(c4ccccc4)C3)cnn2-c2ccc(Cl)cc2)CC1 (centres undefined)	?	?
COc1ccc(C(=O)Nc2ccc(N(C)Cc3ccccc3)c(C(=O)O)c2)cc1	-12%	15%
CCOc1ccccc1NC(=O)c1c(NCc2sccc2C)sc2c1CCC(C)C2 (centres undefined)	-2%	?
O=C(/C=C/c1ccccc1)NCCO	0%	nt
Cc1ccc(CCNC(=O)CCCc2nnc3n(C)c(=O)c4sccc4n23)cc1	-3%	-9%
COc1ccc(OC)c([C@@H]2Nc3ccc(C(=O)O)cc3[C@@H]3C=CC[C@@H]32)c1	-24%	7%
Cc1ccccc1-c1noc(-c2ccc(N3CCOCC3)c([N+](=O)[O-])c2)n1	15%	-13%
NC(=O)NS(=O)(=O)c1ccc(N)cc1	4%	nt
CCOC(=O)c1c(NC(=O)c2ccc(OCC)c(Br)c2)sc2c1CCCC2	-19%[11.5 µM]	12%
CCC(=O)N1CCc2cc(CNS(=O)(=O)c3ccc(C(C)C)cc3)ccc21	-24%	?
O=C(NCC(c1cccnc1)N1CCc2ccccc21)c1ccc(F)cc1 (centres undefined)	?	-16%
COc1ccc(CCN2C(=O)c3[nH]nc(-c4ccccc4O)c3C2c2cccc(OC)c2)cc1 (centres undefined)	?	?
Cn1nnc2c(NCc3ccccc3Cl)ncnc21	-3%	-23%
O=C1NCN(c2ccccc2)C12CCN(CCCC(c1ccc(F)cc1)c1ccc(F)cc1)CC2	-23%	nt
COc1ccc(-c2cc(C(F)(F)F)n3nc(C(=O)Nc4cccc(Cl)c4C)cc3n2)cc1	-23%[11.5 µM]	4%
Cc1cn2c(=O)cc(COC(=O)c3cccc(NC(=O)c4ccccc4C)c3)nc2s1	-20%	-10%

An excerpt of these results, field by field.
> COc1ccc(-c2cc(C(F)(F)F)n3nc(C(=O)Nc4cccc(Cl)c4C)cc3n2)cc1
  HTT promoter inh: -23%[11.5 µM]; PMP22 txn prim: 4%
> Cc1cn2c(=O)cc(COC(=O)c3cccc(NC(=O)c4ccccc4C)c3)nc2s1
  HTT promoter inh: -20%; PMP22 txn prim: -10%

More structures.
SMILES	HTT promoter inh	PMP22 txn prim
CCOc1ccccc1CNC(=O)CN1C(=O)c2cccnc2Oc2ccc(Cl)cc21	1%	?
COc1cc(NS(=O)(=O)c2cccs2)cc(OC)c1	-10%	-13%
CCCNC(=O)c1c(NC(=O)c2ccccc2F)sc2c1CCCCC2	2%	-46%
COc1ccc(CCNC(=O)CS(=O)Cc2nc(-c3ccccc3F)oc2C)cc1OC (centres undefined)	-11%	-15%
COc1ccc(S(=O)(=O)NCc2cccn2Cc2cc(C)ccc2C)cc1OC	-23%	2%
COc1ccc(CCNC(=O)CCCCn2c(=O)c3ccccc3n(Cc3ccc(Cl)cc3)c2=O)cc1OC	-30%	?
Cc1oc(-c2cccc(Cl)c2)nc1CN1CCCC(C(=O)NCCc2ccc(Cl)cc2)C1 (centres undefined)	?	?
CNS(=O)(=O)c1cn(CC(=O)N2CCN(c3ccccc3F)CC2)cc1S(=O)(=O)NC	2%	-16%
Cc1ccc(-c2nnc(Nc3ccc(O)cc3)c3ccccc23)cc1S(=O)(=O)N1CCN(C)CC1	?	?
O=C(Nc1ccc2oc(-c3cc(Br)ccc3Cl)nc2c1)c1cc2ccccc2o1	?	?
COc1cccc(-c2nnc(-c3ccccc3NC(=O)c3ccc(F)cc3F)o2)c1	2%	-13%
CC(C)c1ccc(C2CC(=O)Nc3cc4c(cc32)OCCO4)cc1 (centres undefined)	?	?
CC(C)Cc1nn2c(=O)cc(COC(=O)c3cccc(NC(=O)CCc4ccccc4)c3)nc2s1	-6%	-12%
COc1cc(O)c2c(c1)C1OC1C[C@H](O)[C@H](O)C(=O)C=CC[C@H](C)OC2=O (some centres undefined)	?	nt
Cc1ccc(CN2CCCn3nc(C(=O)NCc4ccccc4Cl)cc3C2=O)cc1	?	?
O=C(NCCS(=O)(=O)N1CCN(c2ccccc2F)CC1)C1CC(=O)N(c2ccc(F)cc2)C1 (centres undefined)	-28%	4%
COC(=O)[C@]12CCC(C)(C)C[C@@H]1[C@@H]1C(=O)C=C3[C@@]4(C)C=C(C#N)C(=O)C(C)(C)[C@@H]4CC[C@@]3(C)[C@]1(C)CC2	?	nt
COc1ccc(Cl)cc1NC(=O)C1CCN(c2nnc(C)c3c(C)n(-c4ccccc4)nc23)CC1	-10%	?
Cc1ccccc1Cn1c(SCc2ccc(C(=O)NC3CCCC3)cc2)nc2ccncc21	-3%	-6%
CCOc1ccc(C(=O)NCc2ccc3c(c2)CCN3C(=O)c2ccc(Cl)cc2)cc1	-1%	-6%
Cc1c(C)n(C)c2ccc(C(=O)N3CCN(c4ccccc4)CC3)cc12	-4%	1%
CCc1ccc(NC(=O)CSc2ccc3nc(-c4ccc(OC)cc4)cn3n2)cc1	9%	5%
CCc1ccc2occ(CC(=O)Nc3c(C(=O)Nc4ccc(C)cc4)oc4ccccc34)c2c1	7%	-47%
CCc1ccc(-n2c(=O)c3c4c(sc3n(CC(=O)c3ccc(Cl)cc3)c2=O)CCC4)cc1	0%	?

Structures listed so far that have a Cl atom (21):
SMILES	HTT promoter inh	PMP22 txn prim
O=C(NCc1cccc(Cl)c1)C1CCN(c2nn3cc(-c4ccc(F)cc4)nc3s2)CC1	-5%	?
O=C(NC1CC(=O)N(c2ccc(Cl)cc2)C1)c1cc2ccccc2o1 (centres undefined)	3%	-1%
COC(=O)c1sccc1S(=O)(=O)N(CC(=O)NCc1ccc(F)cc1)c1ccc(Cl)cc1	-4%	?
COC(=O)C(C)NC(=O)N1CCN(c2nnc(C)c3c(C)n(-c4ccc(Cl)cc4)nc23)CC1 (centres undefined)	-8%	?
Cc1ccc(Cl)cc1N1CCN(CCCNC(=O)Cn2ncc3c([nH]c4ccccc43)c2=O)CC1	0%	?
Cc1cc(Cl)ccc1Nc1ncnc2onc(C)c12	-26%	1%
CCOC(=O)C1=C(CNCc2ccc(Cl)cc2)NC(=O)NC1c1ccccc1 (centres undefined)	?	-22%
Cc1cc(=O)n(C(C)C(=O)NCc2ccccc2Cl)c2c1c(C)nn2-c1ccccc1 (centres undefined)	-6%	?
CCn1c(C(=O)NCc2ccc(OC)cc2)cc2sc(Cl)cc21	-26%	4%
O=C(CN1C(=O)C2(SCC(=O)N2c2ccccc2)c2ccccc21)NCc1ccccc1Cl (centres undefined)	-16%	?
CC(C)(C)OC(=O)N1CCC(c2c(C(=O)N3CCC(c4ccccc4)C3)cnn2-c2ccc(Cl)cc2)CC1 (centres undefined)	?	?
Cn1nnc2c(NCc3ccccc3Cl)ncnc21	-3%	-23%
COc1ccc(-c2cc(C(F)(F)F)n3nc(C(=O)Nc4cccc(Cl)c4C)cc3n2)cc1	-23%[11.5 µM]	4%
CCOc1ccccc1CNC(=O)CN1C(=O)c2cccnc2Oc2ccc(Cl)cc21	1%	?
COc1ccc(CCNC(=O)CCCCn2c(=O)c3ccccc3n(Cc3ccc(Cl)cc3)c2=O)cc1OC	-30%	?
Cc1oc(-c2cccc(Cl)c2)nc1CN1CCCC(C(=O)NCCc2ccc(Cl)cc2)C1 (centres undefined)	?	?
O=C(Nc1ccc2oc(-c3cc(Br)ccc3Cl)nc2c1)c1cc2ccccc2o1	?	?
Cc1ccc(CN2CCCn3nc(C(=O)NCc4ccccc4Cl)cc3C2=O)cc1	?	?
COc1ccc(Cl)cc1NC(=O)C1CCN(c2nnc(C)c3c(C)n(-c4ccccc4)nc23)CC1	-10%	?
CCOc1ccc(C(=O)NCc2ccc3c(c2)CCN3C(=O)c2ccc(Cl)cc2)cc1	-1%	-6%
CCc1ccc(-n2c(=O)c3c4c(sc3n(CC(=O)c3ccc(Cl)cc3)c2=O)CCC4)cc1	0%	?
